nsP2pro primary = CHIKV nsP2 protease inhibition, primary qHTS | Potency, µM (top dose mostly 24.9 µM), inactives show at the top dose activity change, negative = inhibition, usual class: inhibitors | 31,000 compounds, 1.1% hits | FRET peptide cleavage, nsP2pro, fluorescence 1 h | Q8JUX6; active means well fitted inhibition curve with a large enough effect; inconclusive means small, poorly fitted or top-dose-only effect; inactive means no such curve, though single readings can be large or run the other way; also: nearly all actives have a fitted effect of over 60% in size; a reference inhibitor and vehicle were the controls
Target sequence (Q8JUX6 whole entry, looked up): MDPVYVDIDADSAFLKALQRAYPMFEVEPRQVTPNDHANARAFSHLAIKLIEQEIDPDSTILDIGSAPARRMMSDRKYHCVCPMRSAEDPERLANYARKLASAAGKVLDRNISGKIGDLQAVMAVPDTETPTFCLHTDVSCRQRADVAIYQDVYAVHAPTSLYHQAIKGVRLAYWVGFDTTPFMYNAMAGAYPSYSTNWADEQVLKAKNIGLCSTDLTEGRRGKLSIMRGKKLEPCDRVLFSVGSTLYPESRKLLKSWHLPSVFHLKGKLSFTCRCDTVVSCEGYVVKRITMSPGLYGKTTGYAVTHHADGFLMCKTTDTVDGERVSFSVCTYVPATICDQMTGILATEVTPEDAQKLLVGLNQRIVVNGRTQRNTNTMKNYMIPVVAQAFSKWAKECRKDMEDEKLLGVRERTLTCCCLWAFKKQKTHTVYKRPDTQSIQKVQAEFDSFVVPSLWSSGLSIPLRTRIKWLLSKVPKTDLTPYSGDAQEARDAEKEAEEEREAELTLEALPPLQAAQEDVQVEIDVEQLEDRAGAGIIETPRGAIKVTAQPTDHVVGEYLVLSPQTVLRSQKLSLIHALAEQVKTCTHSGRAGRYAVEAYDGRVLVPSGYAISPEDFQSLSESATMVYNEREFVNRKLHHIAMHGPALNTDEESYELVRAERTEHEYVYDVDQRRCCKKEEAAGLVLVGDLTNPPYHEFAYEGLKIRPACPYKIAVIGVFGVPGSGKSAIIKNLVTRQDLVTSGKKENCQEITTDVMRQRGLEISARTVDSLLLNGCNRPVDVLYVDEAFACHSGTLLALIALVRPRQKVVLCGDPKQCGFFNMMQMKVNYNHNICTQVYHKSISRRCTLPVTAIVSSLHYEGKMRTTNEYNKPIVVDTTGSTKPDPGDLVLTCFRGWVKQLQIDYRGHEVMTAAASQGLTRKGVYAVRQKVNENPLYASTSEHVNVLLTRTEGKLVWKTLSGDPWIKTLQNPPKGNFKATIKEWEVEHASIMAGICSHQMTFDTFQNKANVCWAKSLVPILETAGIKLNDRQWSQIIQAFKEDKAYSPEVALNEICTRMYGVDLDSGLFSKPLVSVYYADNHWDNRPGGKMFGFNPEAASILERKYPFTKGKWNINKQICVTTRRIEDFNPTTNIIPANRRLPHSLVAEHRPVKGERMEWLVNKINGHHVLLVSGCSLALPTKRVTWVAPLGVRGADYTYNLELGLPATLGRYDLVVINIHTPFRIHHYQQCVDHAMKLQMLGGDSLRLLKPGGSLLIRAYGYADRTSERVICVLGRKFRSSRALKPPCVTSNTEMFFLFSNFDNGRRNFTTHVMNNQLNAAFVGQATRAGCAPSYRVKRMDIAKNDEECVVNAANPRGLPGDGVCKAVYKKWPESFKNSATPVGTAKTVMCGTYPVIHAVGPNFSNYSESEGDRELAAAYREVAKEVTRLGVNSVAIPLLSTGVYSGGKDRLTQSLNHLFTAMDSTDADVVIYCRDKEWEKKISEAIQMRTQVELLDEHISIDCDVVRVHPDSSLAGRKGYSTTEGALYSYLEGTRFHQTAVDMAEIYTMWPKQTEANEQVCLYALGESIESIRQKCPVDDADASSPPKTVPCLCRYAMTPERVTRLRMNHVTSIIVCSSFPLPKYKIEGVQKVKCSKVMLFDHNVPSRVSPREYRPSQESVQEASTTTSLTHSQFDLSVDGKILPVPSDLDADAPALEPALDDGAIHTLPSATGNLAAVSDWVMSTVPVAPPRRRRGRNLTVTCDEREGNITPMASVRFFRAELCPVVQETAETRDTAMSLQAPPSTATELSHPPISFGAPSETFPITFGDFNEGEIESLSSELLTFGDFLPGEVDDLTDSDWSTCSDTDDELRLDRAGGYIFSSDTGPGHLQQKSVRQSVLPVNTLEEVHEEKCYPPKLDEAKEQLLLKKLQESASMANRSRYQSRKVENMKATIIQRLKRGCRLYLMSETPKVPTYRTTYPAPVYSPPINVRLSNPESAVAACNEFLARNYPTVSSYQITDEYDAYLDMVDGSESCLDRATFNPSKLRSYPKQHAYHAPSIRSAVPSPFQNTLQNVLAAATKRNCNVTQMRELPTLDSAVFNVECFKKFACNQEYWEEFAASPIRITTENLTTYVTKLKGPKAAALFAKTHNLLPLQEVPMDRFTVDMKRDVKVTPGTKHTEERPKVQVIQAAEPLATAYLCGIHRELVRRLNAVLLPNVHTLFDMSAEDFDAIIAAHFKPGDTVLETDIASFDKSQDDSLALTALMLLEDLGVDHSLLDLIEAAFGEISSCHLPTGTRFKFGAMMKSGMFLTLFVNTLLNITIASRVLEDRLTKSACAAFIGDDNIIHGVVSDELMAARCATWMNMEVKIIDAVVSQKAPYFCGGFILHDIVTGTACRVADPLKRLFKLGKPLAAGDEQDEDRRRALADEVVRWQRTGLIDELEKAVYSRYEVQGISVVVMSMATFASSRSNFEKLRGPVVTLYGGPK
Active calls of the source: *; i = inactive; ? = inconclusive; & = joins results of further samples; [ ] = another dose, or the depositor's remark. % is scaled to controls: 0 for no effect and ±100 for the full control effect; potency is read from the fitted curve at half-maximal effect. Some of the compounds tested (hit frequency here may not be typical).

Sample of the layout (7 entries):
SMILES	nsP2pro primary
CC(=O)c1ccc(N2CCN(c3nc4c(S(=O)(=O)c5ccccc5)nnn4c4ccc(Cl)cc34)CC2)cc1	-7%
CC(=O)NC(c1ccco1)c1cc(Cl)c2ccccc2c1O (configuration not stated)	?
Cc1nc(NCc2ccccc2)c2nc(-c3ccccc3)n(CCN3CCOCC3)c2n1	3%
CC(=O)N1CCc2c(sc3c2c(=O)n(-c2ccccc2)c(=O)n3CC(=O)Nc2ccccc2C)C1	-9%
COc1ccccc1CCNC(=O)CCc1c(C)c2cc3c(C)c(C)oc3cc2oc1=O	-19%
Cc1cc(C(=O)NCC2(COc3ccc(S(C)(=O)=O)cc3)C[C@@H](O)[C@@H](O)C2)n(C)n1 (some centres not stated)	i
NC(=O)C1CCN(c2nc(-c3ccc4c(c3)OCCCO4)cs2)CC1	1%[78.4 µM]

Main list, repeating the preview:
SMILES	nsP2pro primary
CC(=O)c1ccc(N2CCN(c3nc4c(S(=O)(=O)c5ccccc5)nnn4c4ccc(Cl)cc34)CC2)cc1	-7%
CC(=O)NC(c1ccco1)c1cc(Cl)c2ccccc2c1O (configuration not stated)	?
Cc1nc(NCc2ccccc2)c2nc(-c3ccccc3)n(CCN3CCOCC3)c2n1	3%
CC(=O)N1CCc2c(sc3c2c(=O)n(-c2ccccc2)c(=O)n3CC(=O)Nc2ccccc2C)C1	-9%
COc1ccccc1CCNC(=O)CCc1c(C)c2cc3c(C)c(C)oc3cc2oc1=O	-19%
Cc1cc(C(=O)NCC2(COc3ccc(S(C)(=O)=O)cc3)C[C@@H](O)[C@@H](O)C2)n(C)n1 (some centres not stated)	i
NC(=O)C1CCN(c2nc(-c3ccc4c(c3)OCCCO4)cs2)CC1	1%[78.4 µM]
Cc1c(O)cc2c(c1O)COC1(O)CCCOC21 (configuration not stated)	-11%
CCC1C(=O)OC23C=C[C@@H]4C(C(=O)O)=CO[C@H](O[C@@H]12)[C@@H]43 (some centres not stated)	-11%
CC1(C)CCC[C@]2(C)C1CC=C(CO)[C@H]2CC/C(=C/CO)CO (some centres not stated)	-11%
CCOC(=O)C1CCN(C(=O)C2COc3ccccc3C2)CC1 (configuration not stated)	-16%
Fc1ccc(-c2noc([C@@H]3Cc4nc[nH]c4CN3CCCc3ccccc3)n2)cc1Cl	i
CCN(CC)CCNC(=O)CN1C(=O)COc2ccc(S(=O)(=O)N3CCOCC3)cc21	-4%
CN(C)[C@@H]1CN(C(=O)CCc2ccccc2)CC[C@]1(O)c1ccccc1	i
COc1ccc(C(OC2OC(CO)C(O)C(O)C2O)C(C)O)cc1 (configuration not stated)	21%
CCOC(=O)c1ccc(NC2=CC(c3ccc(O)c(OCC)c3)N(c3ccc(C(=O)OCC)cc3)C2=O)cc1 (configuration not stated)	-11%
Cc1ccc(C(=O)N2CCCCCCNC(=O)[C@@H]3C[C@@H](c4nc(Cc5ccccc5)no4)C[C@@H]32)s1	1%
O=C(c1cc2sccc2n1Cc1ccccc1)N(CCc1ccc(O)c(O)c1)Cc1ccccc1	i
CN(C(=O)CSc1nc2ccccc2n1CC(=O)N(C)c1ccc(F)cc1)c1ccccc1	-11%
Cc1ccc(C)c(N2CCN(C(=O)c3noc4c3CCCCC4)CC2)c1	-17%
CC(C)(Oc1ccc(C(=O)c2ccc(Cl)cc2)cc1)C(=O)O	7%
COc1c(Cl)cccc1NC(=O)c1c(NC(=O)Cc2ccccc2)sc2c1CCCC2	-5%
Cc1cccc(-c2nc3scc(CCNS(=O)(=O)c4ccc(F)cc4C)n3n2)c1	-11%
COc1cccc(CNC(=O)c2sc3nc[nH]c(=O)c3c2C)c1	-18%
COc1ccc(NC(=O)CCNS(=O)(=O)c2ccc3c(c2)CCCC(=O)N3)cc1Cl	-7%

No new results follow: an excerpt of the list.
SMILES	nsP2pro primary
COc1cccc(CNC(=O)c2sc3nc[nH]c(=O)c3c2C)c1	-18%
COc1ccc(NC(=O)CCNS(=O)(=O)c2ccc3c(c2)CCCC(=O)N3)cc1Cl	-7%

Next compounds
SMILES	nsP2pro primary
COc1ccc2c3c1O[C@H]1C[C@@H](O)C=C[C@@]31CCN(C)C2	-8%&-10%
COc1cc(OC)c(Nc2ncnc3onc(-c4cccc(Cl)c4)c23)cc1Cl	-14%
CS(=O)(=O)c1ncc(Cl)c(C(=O)Nc2c(C(=O)c3ccc(Cl)cc3)oc3ccccc23)n1	-5%
Cc1ccc(S(=O)(=O)Nc2cccnc2C(=O)Nc2nc(-c3ccccc3)cs2)cc1	i
CC#C[C@@H](CC(=O)O)c1ccc(OCc2cccc(-c3ccc(C(F)(F)F)cc3)c2)cc1	452%[activator]
CCCCc1cc2ccccc2c(OCCN(C)C)n1	22%
CCCCCCNc1ncnc2c1sc1nc(N3CCOCC3)c3c(c12)CCCC3	-23%
COc1ccc(NC(=O)c2c(NC(=O)C(F)(F)F)sc3c2CCCCC3)cc1	16%
Cc1noc(C)c1-c1cn(C)c(=O)n2cc(COc3ccc(Cl)cc3)nc12	0%[39.2 µM]
CC1=NOC2(CCN(Cc3ccncc3)CC2)C1	-10%[39.2 µM]
c1nc(NCCc2cnc[nH]2)c2ccc(-c3ccc4c(c3)OCO4)cc2n1	i
CC1=CC(=O)CC(C)(C)C1CCC(C)O[C@@H]1O[C@H](CO[C@@H]2OC[C@@H](O)[C@H](O)[C@H]2O)[C@@H](O)[C@H](O)[C@H]1O (some centres not stated)	115%[activator][10 µM]
C/C=C/C=C/C=C/C(=O)O[C@@H]1[C@@H](OC)C2=C(C(=O)N(C(CCC(=O)O)C(=O)O)C2)[C@@]2(C)CCCC(C)(C)[C@H]12 (some centres not stated)	34%[activator][10 µM]
COc1ccc(CCO[C@@H]2O[C@H](CO[C@H]3OC[C@](O)(CO)[C@H]3O)[C@@H](OC(=O)/C=C/c3ccc(O)c(O)c3)[C@H](O[C@@H]3O[C@@H](C)[C@H](O)[C@@H](O)[C@H]3O)[C@H]2O)cc1OC	18%[10 µM]
CCN1C(=O)NC(c2ccccc2)C1=O (configuration not stated)	-3%
CCc1cccc(NC(=O)c2nc(-c3ccncc3)no2)c1	-2%
CC(=O)OC1CC2C3(C)CCC(OC(=O)CC(=O)O)C(C)(C)C3CCC2(C)C2(C)CCC(C3(C)CCC(=O)O3)C12 (configuration not stated)	-7%[10 µM]
COc1cccc(NS(=O)(=O)c2ccc(-c3cc(C)no3)s2)c1	-22%
NCCCNCCSP(=O)(O)O	6%[5.1 µM]
O=C1CS(=O)(=O)C2(C(=O)Nc3ccccc32)N1c1cccc(Cl)c1 (configuration not stated)	-9%
Cc1ccc(C)c(CSc2cn(CCNC(=O)c3cccs3)c3ccccc23)c1	-11%
CCN(CC)S(=O)(=O)c1ccc2nc(NC(=O)c3ccc(Br)o3)sc2c1	-9%
CC(C)=CCC/C(C)=C/CC/C(C)=C/C(=O)OCC(=O)[C@@]1(O)CC[C@H]2[C@@H]3CCC4=CC(=O)C=C[C@]4(C)[C@H]3[C@@H](O)C[C@@]21C	-9%
O=C(NCCCc1nc2ccccc2n1Cc1ccc(F)cc1)C1CCCCC1	-9%
CC(C)(C)OC(=O)NCCOCCOCCOc1cccc(-n2ncc3c2CCCC3NC(=O)c2ccccn2)c1 (configuration not stated)	2%

Filtered by structure: the compounds so far with an aryl thioether with sulfur outside any ring (2)
SMILES	nsP2pro primary
CN(C(=O)CSc1nc2ccccc2n1CC(=O)N(C)c1ccc(F)cc1)c1ccccc1	-11%
Cc1ccc(C)c(CSc2cn(CCNC(=O)c3cccs3)c3ccccc23)c1	-11%

Next records
SMILES	nsP2pro primary
COc1cc(-c2cn(C3CCc4c(F)cccc4N(CC(F)(F)F)C3=O)nn2)ccc1-n1cnc(C)c1 (configuration not stated)	98%[activator]
CNC(=O)N1C[C@@H](Oc2ccccc2)C[C@H]1C(=O)NCCOC	3%
COC(=O)c1cc2oc3ccccc3c2n1Cc1nc(-c2ccccc2C)oc1C	?
CCCCC/C=C/C/C=C/CCCCCCCC(=O)O	?
COc1ccc2c(c1)CC(C(=O)NCCCN1CCN(c3cccc(Cl)c3)CC1)CO2 (configuration not stated)	-10%
C[C@@H]1O[C@@H](O[C@H]2CC[C@@]3(C)C(CC[C@@H]4C3CC[C@]3(C)[C@@H](C5=CC(=O)OC5)CC[C@]43O)C2)[C@H](O[C@@H]2O[C@H](CO)[C@@H](O)[C@H](O)[C@H]2O)[C@H](O)[C@H]1O (some centres not stated)	-8%[10 µM]
NC(=O)c1ncn([C@@H]2O[C@H](CO)[C@@H](O)[C@H]2O)c1O	-1%
CC(=O)[C@@H]1CC[C@]2(C(=O)O)CC[C@]3(C)C(CCC4[C@@]5(C)CC[C@H](O)C(C)(C)C5CC[C@]43C)C12 (some centres not stated)	-10%[10 µM]
CCn1c(=N)c(C(=O)NCc2ccccc2)cc2c(=O)n3cccc(C)c3nc21	-25%
CCOc1nc(NC(=O)NS(=O)(=O)Oc2cccc(F)c2)nc(-c2ccccc2)n1	-18%
Cc1ccc(NC(=O)C(c2ccccc2)N2Cc3ccccc3C2=O)cc1Cl (configuration not stated)	-15%
CN1CCN(C2CCC(n3cc(-c4ccc(Oc5ccccc5)cc4)c4c(N)ncnc43)CC2)CC1 (configuration not stated)	?
COc1ccc(NC(=O)c2cc(S(=O)(=O)N3CCCCCC3)cn2C)cc1Cl	-15%
Brc1sc2c(c1-c1nc3ccccc3s1)CCNC2	-10%
COC(=O)[C@@]1(O)C=CC[C@@H]2[C@@]3(C)C[C@@H](c4ccoc4)OC(=O)[C@H]3CC[C@]21C	2.7µM*
C[C@H](NC(c1cccc(C[P+](=O)O)c1)[C@H](C)O)c1ccc(Cl)c(Cl)c1 (some centres not stated)	-6%
O=C(Nc1n[nH]c(Cc2ccccc2)n1)N1CCN(C(=O)c2ccco2)CC1	i
Cc1ccc(CNC(=O)Cn2c(=O)ccc3cc(S(=O)(=O)N4CCC(C)CC4)ccc32)cc1	-16%
COC[C@H]1CCCN1[C@@H]1[C@H](O)[C@H](CO)O[C@@H]1CNCc1ccc(F)cc1	-16%[39.2 µM]
CCc1nn(CC(=O)N2CCN(c3cccc(C(F)(F)F)c3)CC2)c(=O)c2cc3occc3n12	-16%
O=C1NCC2(CCCN(C(=O)c3cn[nH]c3-n3cnnn3)C2)O1 (configuration not stated)	2%
C[C@@H]1O[C@@H](O[C@H]2[C@H](OC(=O)[C@]34CCC(C)(C)C[C@H]3C3=CCC5[C@@]6(C)CC[C@H](O[C@@H]7O[C@H](CO[C@@H]8OC[C@H](O)[C@H](O)[C@H]8O)[C@@H](O)[C@H](O)[C@H]7O)C(C)(C)C6CC[C@@]5(C)[C@]3(C)C[C@H]4O)OC[C@@H](O)[C@@H]2O)[C@H](O)[C@H](O[C@@H]2OC[C@](O)(CO)[C@H]2O)[C@H]1O[C@@H]1OC[C@H](O)[C@H](O[C@@H]2OC[C@@H](O)[C@H](O)[C@H]2O)[C@H]1O (some centres not stated)	23%[5.1 µM]
COc1ccc(-c2ccc3nc(-c4ccc(SC)cc4)oc3c2)c(OC)c1OC	22%
O=C(NCc1ccc(F)cc1)C1=NOC2CN(C(=O)Nc3cccnc3)CC12 (configuration not stated)	-9%
CS(=O)(=O)N1CCC(C2CCN(Cc3ccc4c(c3)CCO4)C2)CC1 (configuration not stated)	-7%
SMILES	nsP2pro primary
O=C(OCC1CCCO1)c1ccc2c(c1)N(Cc1ccccc1F)C(=O)c1ccccc1S2(=O)=O (configuration not stated)	-15%
CCCCN(CC)CCNc1ncnc2onc(-c3ccc(Cl)cc3)c12	-29%
COc1ccc(OC)c(Nc2ncc3c(n2)CCN(Cc2cc(OC)c(OC)c(OC)c2)C3)c1	-12%
COc1cccc(CN2CCC(C(=O)N3CCCCCCNC(=O)CC3)CC2)c1	-4%
O=c1c2ccc(F)cc2nc2sc(Nc3ccc4c(c3)CCC4)nn12	-22%
CCN(C(=O)Cn1c(=O)n(CC2CCC(C(=O)NC)CC2)c(=O)c2sccc21)c1ccccc1 (configuration not stated)	-14%
CCOC(=O)c1c(C)n(C)c2ccc(O)cc12	-46%
CCC(=O)Nc1nnc(S(=O)(=O)N(C)Cc2ccc(Cl)cc2)s1	-12%
COc1c(NS(=O)(=O)c2ccc(C)cc2)cccc1C(=O)Nc1nc(-c2ccccc2)cs1	-10%
COc1ccc2oc(-c3ccc(C)c(NC(=O)c4ccc(N5CCCCC5)c([N+](=O)[O-])c4)c3)nc2c1	-2%
CCOc1ccc(OCCOCCn2c(-c3ccc(Cl)cc3)nc3ccccc3c2=O)cc1	-9%
C[C@@H]1COCCN1c1cc(=O)n2c(n1)N(Cc1cncc(Cl)c1)[C@H](C(F)(F)F)CC2	-6%
Nc1cc(C(Cl)=C(Cl)Cl)c(S(N)(=O)=O)cc1S(N)(=O)=O	8%
O=C(c1noc2c1CCCCC2)N1CCN(c2cccc(Cl)c2)CC1	-21%
CCc1ccc(NC(=O)Cn2c(=O)n(CCCCC(=O)NCCc3ccccc3)c(=O)c3ccccc32)cc1	-15%
COc1cc(C(=O)O[C@H]2[C@@H]3C=CO[C@@H](O[C@@H]4O[C@H](CO)[C@@H](O)[C@H](O)[C@H]4O)[C@@H]3[C@@]3(CO)O[C@@H]23)ccc1O	?
Cn1cc(CN(Cc2c(C(=O)N3CCCC3)nc3sccn23)C2CC2)cn1	4%
O=c1[nH]c(-c2ccc(F)cc2)nc2c1CCN(S(=O)(=O)c1cccs1)C2	1%
Cc1cc(NS(=O)(=O)c2ccc(NC(=O)Cc3cccc4ccccc34)cc2)no1	i
COc1ccccc1-n1nc(Cc2ccccc2)n(CC(=O)NC(C)C2CC2)c1=O (configuration not stated)	-5%
CCn1nc(C)c(-c2cc(C(=O)N3CCCCCCNC(=O)CC3)no2)c1C	0%
CCOc1ccc2nc(S(N)(=O)=O)sc2c1	-5%
CCCCNc1nc(C)nc2c1nc(-c1ccccc1)n2CC1CCCN1CC (configuration not stated)	3%
